Bioassay records (PubChem BioAssay)
StopGo reporter = lowers the luciferase signal of an FMDV 2A StopGo reporter | human cells with a luciferase reporter of 2A StopGo recoding; control for the full effect not named in the record | Potency, µM (doses to about 57.9 µM), for the others: at the top dose signal change, negative = less light | 410,000 tested, 1.2% active; active = well fitted falling curve with a large enough effect; inconclusive = small, poorly fitted or top-dose-only effect; inactive = no such curve, though single readings can be large or run the other way; tested in HEK293T cells; note: nearly all actives have a fitted effect of over 45% in size; luciferase light after 4 h
RE007 growth inh = less growth of the S. pombe RE007 Vpr strain | S. pombe RE007 Vpr strain, BacTiter-Glo ATP luminescence, 24 h; control for the full effect not named in the record | Potency, µM (series often up to 92.2 µM), for the others: at the highest dose activity change, negative = less growth | 360,000 tested, 0.21% active | AID 651644; active = well fitted falling curve with a large enough effect; inconclusive = small, poorly fitted or top-dose-only effect; inactive = no such curve, though single readings can be large or run the other way;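 note: nearly all actives have a fitted effect of over 50% in size; the assay follows cell death caused by Vpr and the record does not say whether a fall means rescue or toxicity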
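Fission yeast RE007 carrying one integrated HIV-1 vpr copy, seeded at OD 0.01 in PMG+AL medium with 23 nL pinned compound. Grown 24 h at 30 degrees; viability read by BacTiter-Glo luminescence after 5 min.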
The depositor's hits bear a star; ? = inconclusive; [ ] = remark or other dose. % is set by controls: 0 for no effect and ±100 for the full control effect; potency is the fitted concentration of half-maximal effect.

SMILES	StopGo reporter	RE007 growth inh
C#CCNC(=O)C1=C[C@H](C(C)(C)C)C[C@H](OCCCCO)O1	3%	-2%
CC(C)c1ccc(NC(=O)C2(C)Cc3c(-c4cccc(C(N)=O)c4)ccnc3O2)cc1 (stereo not drawn)	-15%	7%[18.4 µM]
O=C1NC[C@H](Cc2ccccc2)N(C[C@H]2CCCN2C[C@H](Cc2ccc(O)cc2)N2C[C@H](Cc3ccc(O)cc3)N(CC3CCCCCC3)C(=O)C2=O)C1=O	8%	-13%
O=C(c1cccnc1)N(Cc1ccccc1)C(c1ccccc1)c1nc2ccccc2[nH]1 (stereo not drawn)	20%	-26%
CCOC(=O)C1(C)CCN1C(=O)c1cccc(OC(F)(F)F)c1 (stereo not drawn)	-11%	2%[18.4 µM]
CCOC(=O)C1Nc2ccc(C)cc2C2C=CCC12 (stereo not drawn)	-6%	-4%
CCCCC[C@@H]1C=C(C(=O)OCC)[C@H](c2ccccc2)N1S(=O)(=O)c1ccc(C)cc1	-4%	9%
C#CCOCCOCCOCCNc1nc(N2CCN(C(=O)C([C@@H](C)CC)n3cc(C(N)COC(=O)C(F)(F)F)nn3)CC2)nc(N2CCN(C(=O)[C@H](CCCCN)n3cc(C(N)CC(C)C)nn3)CC2)n1 (stereo partly drawn)	6%	-6%
COc1c(C)cc(C(O)c2ncc(-c3cccc4ccccc34)[nH]2)cc1C (stereo not drawn)	-19%	-15%
CCOC(=O)C1=C[C@@H](C(C)(C)C)N(S(=O)(=O)c2ccc(C)cc2)[C@H]1c1cccc(Cl)c1	-52%	-6%
c1csc(CNc2nc(Oc3ccncc3)c3sccc3n2)c1	11%	2%[18.4 µM]
Cc1ccc(-c2nc3ccc(Cl)cn3c2CC(C)(C)C)cc1	0%	7%
O=C(NCCN1CCC2(CC1)C(=O)NCN2c1cccc(F)c1)c1ccc2ccccc2c1	-29%	-14%
CCCNC(=O)c1cc(C2CCCN(C(=O)c3ccc(OC)cc3)C2)on1 (stereo not drawn)	-6%	12%[18.4 µM]
CCCc1nc2c3ccccc3ccn2c1Cc1ccccc1	27%	?
Cc1noc(C)c1CCC(=O)Nc1cc(Cl)ccc1C(=O)O	0%	-8%
COCCCNC(=O)c1cccc2c(-c3ccc(O)c(OC)c3)coc12	5%	22%
Cc1cc2nc(-c3ccccc3)c(CC3CCCCC3)n2c(C)c1Br	11%	-9%
O=C(Nc1ccc(Cl)cc1)c1csc([C@@H]2O[C@H](CO)[C@@H](O)[C@H]2O)n1	-8%	1%
CC(C)c1ccc(C(=O)N2CCCCC2c2cc(C(=O)Nc3ccncc3)no2)cc1 (stereo not drawn)	4%	-2%
CC1=C(C(=O)N2CCOCC2)CC(CC(=O)NC2CCCCC2)C(=O)N1Cc1ccccc1 (stereo not drawn)	-25%	-7%
COC(=O)[C@]12CCCCC=C1N(Cc1ccc3c(c1)OCO3)C(=O)[C@H](CC(=O)NCc1ccccc1)C2	-10%	0%
CC(C)NC(=O)C1C(c2ccc(C(F)(F)F)cc2)=Nc2ccccc2N1C(=O)c1ccccc1 (stereo not drawn)	31%[activator]	-10%
Cc1ccc([C@@H]2CC(=O)[C@@H]3CN(S(=O)(=O)c4ccc(C)cc4)[C@H](c4ccc(Cl)cc4)C[C@@H]3N2S(=O)(=O)c2ccc(C)cc2)cc1	-10%	2%
Cc1cc(Br)cn2c(Cc3cccc(Cl)c3)c(-c3ccco3)nc12	-18%	-26%
CCNC(=O)c1cc2c(c(-c3cccc(-c4cccc(C(=O)N(C)C)c4)c3)n1)[C@@H](CCO)N(S(=O)C(C)(C)C)C2 (stereo partly drawn)	0%	-22%
C[C@@H]1COc2cc(N3CC[C@H](O)C3)ccc2S(=O)(=O)N1	-5%	-3%
COc1ncnc2c1ncn2CCCNCc1ccccn1	0%	1%
Cc1cc2oc(=O)cc(CN(C)Cc3ccccc3)c2cc1C	27%	-19%
Cc1ccc(NC(=O)C(C)Sc2nnc3n2CCCCC3)cc1S(=O)(=O)N1CCOCC1 (stereo not drawn)	-16%	-4%
Cc1ccccc1Nc1nc(N)nc(COC(=O)c2ccc3c(c2)OCCO3)n1	?	8%
COc1cccc(NC(=O)C2(C)CCN2Cc2ccccc2OC(F)F)c1 (stereo not drawn)	-26%	-16%[18.4 µM]
COc1cc2ccc(C(C)=O)c(O)c2cc1OC	10%	-14%
CC1(C(=O)NS(=O)(=O)c2cccs2)CCN1C(=O)c1ccccc1CCc1ccccc1 (stereo not drawn)	-10%	10%[18.4 µM]
COc1ccc(C(C)(O)c2nc(-c3cc(F)cc(F)c3)cs2)cc1 (stereo not drawn)	-20%	?
COc1ccc(S(=O)(=O)N2CCCCCC2)cc1NC(=O)CCNC(=O)c1ccc(Cl)cc1	-15%	-12%
CCN1C[C@@H]2[C@@H]3C(=O)N(Cc4ccccc4)C(=O)[C@@H]3[C@](C)(C1=O)N2C(=O)c1ccccc1	-20%	2%
CO[C@@H]1CN(C)C(=O)c2ccc(NC(=O)C3CCC3)cc2OC[C@H](C)N(CC2CCCCC2)C[C@H]1C	-9%	11%
c1ccc(CNn2nnc3ccccc32)cc1	48%[activator]	0%
COc1ccc(CCc2nc3ccccc3n2C(CCc2ccccc2)c2nc3ccccc3[nH]2)cc1 (stereo not drawn)	-17%	-21%
COC(=O)C1=CN(c2ccc(Oc3ccccc3)cc2)C(N)=C(C#N)C1c1ccc(-c2ccccc2)cc1 (stereo not drawn)	-12%	1%
COCCNC(=O)c1cc(-c2ccccc2)sc1N	15%	-9%
COc1ccc(CCCNC(=O)C2Cc3c(-c4ccccc4)ccnc3O2)cc1 (stereo not drawn)	-26%	-21%
OCc1ccc(-c2cncc3nccn23)cc1	-20%	3%
CC1(C(=O)Nc2ccccc2Cc2ccccc2)CCN1Cc1ccccc1Cl (stereo not drawn)	-16%	12%[18.4 µM]
O=C(Nc1ccccc1)c1cc(C2CCCN(C(=O)C3CC3)C2)on1 (stereo not drawn)	-61%	?
OC(c1ccc(Cl)cc1)c1ncc(-c2ccccc2F)[nH]1 (stereo not drawn)	76%[activator]	-16%
O=[N+]([O-])c1ccccc1S(=O)c1ccccc1[N+](=O)[O-]	-24%	3%[18.4 µM]
CC(C)C[C@H]1COc2cc(N(C)CCO)ccc2S(=O)(=O)N1	-14%	26%
Cc1ccc(S(=O)(=O)NC(=O)C2(C)CCN2C(=O)C2CCCCC2)nc1 (stereo not drawn)	6%	63%
C=CCNc1nc2cc(-c3cccc(NC(C)=O)c3)sc2c(=O)n1C	38%[activator]	13%
CC(=NNC1=NCCN1)c1cn(C2=NCCN2)nc1C	-6%	?
O=C(CN1C(=O)C2CC=CCC2C1=O)Nc1ccc(F)c(Cl)c1 (stereo not drawn)	-3%	-13%
CN(C)CCN1CCN(C2CN(Cc3cn(Cc4ccc(Cl)cc4)nn3)S(=O)(=O)C2)CC1 (stereo not drawn)	-23%	-11%
COc1ccccc1-c1n[nH]nc1C1=CC(=O)C[C@H](c2ccc(F)cc2)C1	-17%	-4%
O=C(CSc1ncccn1)NCC1CCCO1 (stereo not drawn)	-5%	16%
COc1ccc(Cc2c(-c3cccc(Cl)c3)nc3c(C)cc(Br)cn23)c(C)c1	?	?
CN(C(=O)CN1CCN(c2cc(-c3cccc4oc5ccccc5c34)ncn2)CC1)c1ccccc1	-24%	-2%
O=C(O)c1ccccc1NCc1cccnc1	64%[activator]	-4%
CC1(c2nnc(Cc3ccccc3)o2)CC(c2ccccc2)=NO1 (stereo not drawn)	11%	25%

(more compounds)
SMILES	StopGo reporter	RE007 growth inh
CC1(C(=O)NCc2cccc3ccccc23)CCN1Cc1cccc2c1OCO2 (stereo not drawn)	0%	-10%[18.4 µM]
CC1(c2nnnn2-c2ccc3c(c2)OCCO3)CCC(=O)N1Cc1cccc(C(F)(F)F)c1 (stereo not drawn)	0%	-1%
COC(=O)C[C@H]1c2cc(C(F)(F)F)ccc2S(=O)(=O)N1C1CCCC1	39%[activator]	2%
CC(=O)NC1CC2CCCC(C1)N2C(=O)Nc1c(C)cccc1C (stereo not drawn)	3%	3%
C[Se]C[C@@H](N)C(=O)O	-21%	-8%
Nc1[nH]c(C(=O)c2ccccc2)c(-c2ccccc2Br)c1C(=O)NCc1ccc(-c2ccccc2)cc1	-6%	2%
O=C(COC(=O)C1CCN(S(=O)(=O)c2ccc(Cl)c(C(F)(F)F)c2)CC1)NCC1CCCO1 (stereo not drawn)	-4%	2%
O=c1[nH]cc(CCc2ccccc2)c(=O)[nH]1	-29%	1%
Cc1ccc(Cc2c(C3CCCCC3)nc3c4ccccc4ccn23)cc1	27%	?
COC(=O)c1ccc2nc(-c3ccc(C)cc3)c(Cc3ccc(OC)cc3C)n2c1	-11%	-16%
COc1ccc(N2CCN(c3cncc(C)n3)CC2)cc1	27%	-2%
CCCCCCN1C[C@@H](O)[C@H](n2cc(COC(=O)c3ccccc3)nn2)C[C@@H]1c1ccccc1	-24%	23%
O=C1/C(=C/c2ccc(S(=O)(=O)O)cc2S(=O)(=O)O)CCc2ccccc21	-14%	-4%
Cc1ccc(CNc2nc3cc(-c4ccccc4C)sc3c(=O)n2C)c(C)c1	0%	22%
C[C@@H]1CN([C@@H](C)CO)C(=O)CCCn2nncc2CO[C@H]1CN(C)Cc1ccncc1	-4%	-5%
COc1ccccc1-c1noc2c1C(=O)N(Cc1cn(Cc3ccccc3)nn1)CC2	-9%	8%
O=S1(=O)C=C[C@@H](CO)N1Cc1ccc(Br)cc1	-14%	1%
COc1ccc(CNC(=O)[C@@H]2CC=C[C@@H]3CCN(Cc4ccccc4)C(=O)[C@@H]32)cc1	13%	-15%
CCOC(=O)C1(CCOc2ccccc2)CCN(Cc2ccc(OC)cc2)CC1	?	7%
OC(c1ccccc1)c1ncc(-c2ccccc2Cl)[nH]1 (stereo not drawn)	94%[activator]	-14%
CCc1nc2c(OCc3ccc(F)c(F)c3)cccn2c1N(C)C(=O)c1ccc(OC)cc1	7%	3%
CC1(C(=O)NS(=O)(=O)C2CC2)CCCN(C(=O)COCc2ccccc2)C1 (stereo not drawn)	0%	9%
CC(C)(C)OC(=O)N1C(=O)[C@](OC(=O)c2ccccc2)(c2ccc(F)cc2)c2ccccc21	-15%	27%
Cc1cn([C@H]2C[C@H](O)[C@@H](CNC(=O)CNC(=O)CN)O2)c(=O)[nH]c1=O	-17%	-10%
Cc1cc(C)cc(CC(=O)N2CCC2(C)C(=O)NS(=O)(=O)c2ccc(Br)cc2)c1 (stereo not drawn)	-10%	-10%[18.4 µM]
COc1cccc(CNc2nc3cc(-c4ccc(OC)c(OC)c4)sc3c(=O)n2C)c1	?	-14%
Cn1c(NCc2cccnc2)nc2cc(-c3ccc(F)cc3)sc2c1=O	6%	61%
O=C(c1ccc(C(F)(F)F)cc1)N1CCC(=O)N([C@H](COCc2ccccc2)Cc2ccccc2)CC1	?	-13%
CC(C)CNc1ncnc2c1ncn2[C@H]1CN(Cc2ccc(Cl)cc2)C[C@@H](CO)O1	-21%	14%
CC(C)(C)c1ccc(S(=O)(=O)NC(=O)C2(C)CCN2C(=O)Cc2ccc(-c3ccccc3)cc2)cc1 (stereo not drawn)	-21%	1%
CCc1cccc(CC)c1NC(=O)c1ccc(-c2cc(Cl)ccc2Cl)o1	-36%	6%
CSCCC(NC(=O)COc1ccccc1)C(=O)N(C)Cc1c(F)cccc1Cl (stereo not drawn)	-8%	1%
C=CCNC(=O)c1c(CSc2ccc(Cl)cc2)noc1C(=O)NCCC	-7%	-6%
CCCN1CCC(C(=O)NC(c2ccc(Cl)cc2)c2ccsc2)CC1 (stereo not drawn)	-18%	15%[18.4 µM]
O=C(NCc1ccncc1)[C@@H]1CCCN1C(=O)[C@H]1CCCN1	-22%	12%
CCCCc1c(-c2ccccc2)ncn1CCc1ccccc1OC	25µM*	-30%
NC(Cc1ccccc1)c1csc(NC(=O)c2cccc(OC(F)(F)F)c2)n1 (stereo not drawn)	?	-19%
COC(=O)c1cc(N/C(N)=N/c2nc(C)cc(C)n2)cc(C(=O)OC)c1	-25%	-8%

Compounds above with an NH in an aromatic ring, in the order listed:
SMILES	StopGo reporter	RE007 growth inh
O=C(c1cccnc1)N(Cc1ccccc1)C(c1ccccc1)c1nc2ccccc2[nH]1 (stereo not drawn)	20%	-26%
COc1c(C)cc(C(O)c2ncc(-c3cccc4ccccc34)[nH]2)cc1C (stereo not drawn)	-19%	-15%
COc1ccc(CCc2nc3ccccc3n2C(CCc2ccccc2)c2nc3ccccc3[nH]2)cc1 (stereo not drawn)	-17%	-21%
OC(c1ccc(Cl)cc1)c1ncc(-c2ccccc2F)[nH]1 (stereo not drawn)	76%[activator]	-16%
COc1ccccc1-c1n[nH]nc1C1=CC(=O)C[C@H](c2ccc(F)cc2)C1	-17%	-4%
Nc1[nH]c(C(=O)c2ccccc2)c(-c2ccccc2Br)c1C(=O)NCc1ccc(-c2ccccc2)cc1	-6%	2%
O=c1[nH]cc(CCc2ccccc2)c(=O)[nH]1	-29%	1%
OC(c1ccccc1)c1ncc(-c2ccccc2Cl)[nH]1 (stereo not drawn)	94%[activator]	-14%
Cc1cn([C@H]2C[C@H](O)[C@@H](CNC(=O)CNC(=O)CN)O2)c(=O)[nH]c1=O	-17%	-10%

An excerpt; rates above refer to the full screens.
